Menin MLL FP FL: displaces fluorescein MLL peptide from human menin. 290,000 tested, under 10 active. Fluorescence polarization, fluorescein-MLL peptide displacement from menin. AID 1766. FP activity change, % at 61.4 µM; inconclusive = falling polarisation curve, or a change in total fluorescence; inactive = total fluorescence flat and polarisation flat or rising; no compound was filed as active; the % refers to the polarisation; negative = inhibition;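 note: % of control where 0% means no effect; inhibitors lower the polarisation; unlabelled MLL peptide was the positive control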
PINK1 expr mod: modulators of PINK1 expression; 410,000 compounds, 0.2% hits; Potency, µM (highest dose often 76.6 µM), for the others: top-dose activation (PINK1 increase), most hits filed as activators; AID 624263; PINK1 immunofluorescence, high-content cytometry, 24 h; active = well fitted activation curve with a large enough effect; inconclusive = small, poorly fitted or top-dose-only effect; inactive = flat fitted curve, though single readings scatter; cell line not stated here;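 note: potency is the fitted concentration of half-maximal effect; % of control where 0% means no effect; nearly all actives have a fitted effect of over 65% in size; a mitochondrial uncoupler was the plate control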
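Readout is PINK1 immunofluorescence, quantified alongside mitochondrial, cell and nuclear markers by laser-scanning microplate cytometry. Cells from a stable line were exposed to compound titrations (5 concentrations) for 24 hours, with CCCP controls.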
TRPML1 ag: activates the human TRPML1 channel; Q9GZU1; TRPML1-expressing cells, Ca2+ dye fluorescence, FDSS; host cell line not named in the record; reference of the full effect not given here; activation, % (test concentration not listed); 410,000 compounds, 0.12% hits; in the data active = activation above about 50%; inconclusive = about 30% to 50%; inactive = below about 30%; note: 0% is about no effect; the text of the record puts the active cut at 80%
Target sequence (Q9GZU1 whole entry, looked up): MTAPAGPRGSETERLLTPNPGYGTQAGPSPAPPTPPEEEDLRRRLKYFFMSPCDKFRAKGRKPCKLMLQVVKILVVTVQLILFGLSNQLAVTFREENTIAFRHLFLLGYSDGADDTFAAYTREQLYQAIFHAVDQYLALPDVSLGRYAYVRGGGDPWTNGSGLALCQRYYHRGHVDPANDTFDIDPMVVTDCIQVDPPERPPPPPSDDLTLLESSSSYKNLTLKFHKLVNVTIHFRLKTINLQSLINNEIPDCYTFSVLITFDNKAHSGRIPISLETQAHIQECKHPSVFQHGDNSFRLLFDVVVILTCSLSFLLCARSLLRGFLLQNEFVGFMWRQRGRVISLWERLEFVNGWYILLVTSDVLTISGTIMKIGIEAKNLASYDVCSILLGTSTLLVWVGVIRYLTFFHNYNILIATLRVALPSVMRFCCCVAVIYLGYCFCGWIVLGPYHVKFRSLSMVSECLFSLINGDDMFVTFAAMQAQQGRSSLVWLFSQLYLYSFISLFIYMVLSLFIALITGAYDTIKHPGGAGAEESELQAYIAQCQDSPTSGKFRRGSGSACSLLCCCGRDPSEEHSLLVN
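Cells: TRPML1-DL, 1X Tet inducer, ~16 h at 37 degrees C/5% CO2. Dye: ABD Ca8 no-wash + quencher, 45-90 min RT. Read: 10 s baseline, compound add, 110 s agonist phase; 54-4 EC80 (4uM final), 110 s antagonist phase.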
TRPML1 blocker: inhibitors of human TRPML1 channel; Q9GZU1; TRPML1-inducible cells, Ca2+ dye fluorescence, FDSS; active compounds read low; inhibition of EC80 agonist-evoked calcium signal; activity change, negative = inhibition, % (concentration not given with the values); 390,000 compounds, 0.02% hits; AID 624415; in the data active means activity change below about -50%; inconclusive means about -30% to -50%; inactive means above about -30%;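 note: stimulus is agonist 54-4 at its EC80 concentration; % is set by controls: 0 for no effect and ±100 for the full control effect; the text of the record puts the active cut at -80%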
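Calcium fluorescence in TRPML1-DL cells induced overnight with Tet: a 110 s read after compound pin addition, then a 110 s antagonist read after challenge with 54-4 at 4 uM final (EC80).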
ClpP mod: qHTS Assay for Activators of ClpP; purified B. subtilis ClpP, FRET peptide cleavage, 20 min; Potency, µM (series often up to 57.5 µM), inactives show at the top dose activity change, negative = active; 340,000 compounds, 1.9% hits; AID 651965, 2013; active = well fitted falling curve with a large enough effect; inconclusive = small, poorly fitted or top-dose-only effect; inactive = no such curve, though single readings can be large or run the other way; note: potency is the fitted concentration of half-maximal effect; the source files actives as falling curves though it sought activators and does not explain the sign; nearly all actives have a fitted effect of over 65% in size; many hits overshoot -100%
Target sequence (P80244 whole entry, looked up): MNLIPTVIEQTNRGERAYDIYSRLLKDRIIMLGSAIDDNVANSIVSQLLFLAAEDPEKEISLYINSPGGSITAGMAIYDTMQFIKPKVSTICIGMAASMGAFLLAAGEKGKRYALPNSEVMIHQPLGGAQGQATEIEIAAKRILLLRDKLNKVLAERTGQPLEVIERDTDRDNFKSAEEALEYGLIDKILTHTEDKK
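Buffer: 100 mM Tris/HCl pH8, 100 mM KCl, 0.05% low protease BSA, 2.5% glycerol, 0.01% Tween-20. ClpP 10 microg/mL final; 20 min RT; delta FRET normalized to ADEP and DMSO controls.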
Sfp inh: inhibitors of Bacillus subtilis Sfp phosphopantetheinyl transferase. Q9F4F7. Biochemical Sfp PPTase activity, qHTS. Potency, µM, for the others: max response, negative = inhibition, actives largely listed as inhibitors. 310,000 compounds, 3.5% hits. AID 1490; active = well fitted inhibition curve with a large enough effect; inconclusive = small, poorly fitted or top-dose-only effect, or another doubt; inactive = no such curve, though single readings can be large or run the other way;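 note: the enzyme is Sfp with the accession as filed and its product quenches rhodamine fluorescence; potency is the fitted concentration of half-maximal effect; 0% = enzyme reaction without inhibitor and -100% = no enzyme wells; top concentration of the series not given in the record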
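Buffer: 50 mM Hepes-Na pH 7.6, 10 mM MgCl2, 0.01% Nonidet P-40, 0.01% BSA. Enzyme 15 nM, pre-exposed to compound 15 min; substrates then added and fluorescence change tracked over 30 min.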
TRPV1 PAM: potentiators of human vanilloid receptor 1 (TRPV1); Q8NER1; TRPV1-expressing cells, Fluo-8 calcium influx, capsaicin EC20 potentiation; host cell line not named in the record; control for the full effect not named in the record; potentiation, % at 8.33 µM; 320,000 compounds, 0.02% hits; active means potentiation above 80%; inconclusive means 30% to 80%; inactive means below 30%; note: 0% is about no effect
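Cells expressing TRPV1 were dye-loaded with Fluo-8 and read kinetically: 10 s baseline, 3 min after compound (agonist portion), then 2 min after EC20 capsaicin (allosteric enhancer portion). Calcium-bound dye fluorescence at 480/520 nm.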
Starred values were filed as active, the others as inactive; i = inactive; u = inconclusive; x = no result given; & = joins results of further samples; [ ] = remark or other dose. Outcome played no part in choosing rows; overall some 4.4% were active at least once.

Value order: Menin MLL FP FL	PINK1 expr mod	TRPML1 ag	TRPML1 blocker	ClpP mod	Sfp inh	TRPV1 PAM
COc1ccc(NC(=O)Cn2nnc(C(=O)NCc3ccc4c(c3)OCO4)c2N)cc1
  -1.9	2.1%&0.8%	1.5&-0.3	-5&-6	-16%	7%	2
COc1ccc(C(C(=O)NC(C)(C)C)N(C(=O)CNC(=O)c2cccs2)c2ccc(C(C)C)cc2)cc1OC (configuration not stated)
  0.7	-5.1%[38.3 µM]	-0.3	4	-0.1%	21%	-2
CC(=O)N(C(C)=O)c1nc(-c2ccccc2)cn1/N=C/c1ccccc1
  2.8	12%	-0.2	1	32µM*	24%	-27
CCCCN(C)C(=O)c1ccc2c(c1)NC(=O)C(CC(C)C)N2 (configuration not stated)
  x	-2.8%	-1.0	9	-13%	x	x
CC1(C(=O)NCc2cccnc2)CCN1C(=O)Cc1cccs1 (configuration not stated)
  x	-0.2%	-0.2	17	1.5%	x	x
C[C@@]12C(=O)Nc3ccc(Br)cc3C(=O)N1[C@H]1c3ccccc3OC[C@@H]1[C@@H]2c1ccccc1
  x	0.4%	0.1	26	-6.3%	x	x
Cc1sc(N(C(=O)CCc2ccccc2)c2ccc(C(=O)O)cc2)nc1-c1ccccc1
  1.4	0.7%	3.4	-1	-3.0%	-26%	17
Cc1ccc(NC(=O)C2CCN(S(=O)(=O)c3ccc4c(c3)CCCC(=O)N4)CC2)cc1N(C)C
  -0.9	-1.1%&0.3%	-1.4&1.3	-2&-2	1.2%&-2.4%	15%	-16
O=c1cc(CSc2nnc(COc3ccccc3)o2)c2ccccc2[nH]1
  6.2	-2.7%	1.0	-10	0.5%	-9%	19
COc1cc(OC)c(NS(=O)(=O)c2ccc3c(c2)NC(=O)CCS3)cc1Cl
  x	-0.8%	0.5	-9	-1.2%	x	x
CCc1ccc(-c2nc(CSCC(=O)N3CCN(c4ccc(F)cc4)CC3)c(C)o2)cc1
  x	0.8%	0.2	-2	-1.3%	x	x
Cc1ccc2c(c1)c1c(c(=O)n(-c3ccccc3C)c(=O)n1CC(=O)c1ccc(Cl)cc1)n2C
  x	-0.1%	1.3	-3	-4.6%	x	x
Cc1cc(C)cc(NC(=O)COC(=O)c2cc(=O)[nH]c(=O)[nH]2)c1
  -1.4	1.2%	1.4	11	x	12%	1
Cc1cc(OCC(=O)OCC(=O)N(C)c2c(N)n(Cc3ccccc3)c(=O)[nH]c2=O)ccc1Cl
  x	3.3%	-0.2	-4	0.6%	x	-11
Cc1ccc(C)c(S(=O)(=O)N2CCCC2CNC(=O)c2ccc([N+](=O)[O-])cc2)c1 (configuration not stated)
  x	1.2%	1.0	37	x	x	2
CC1CCn2c(nc3cc(C(=O)NCCc4ccccc4)ccc32)C1 (configuration not stated)
  x	2.4%	-0.8	-2	-2.7%	x	x
CC(=O)N1c2ccc(S(=O)(=O)N3CCOCC3)cc2CC1C (configuration not stated)
  1.8	0.9%	-0.8	0	0.3%	16%	-5
COc1ccc(C2(C(=O)Nc3ccc(C)c(C)c3)CCOCC2)cc1
  -0.9	2.4%	0.8	-7	x	20%	3
Cc1cc(C)c2c(c1)/C(=N/NC(=S)Nc1ccc(F)cc1)CCC2
  -0.6	6.8%	0.3	13	-1.3%	u	7
COc1ccc(Cl)cc1C(=O)NCC#N
  2.6	2.9%	-0.2	37	-2.9%	17%	-3
O=c1cc(CO)oc(CN2CCN(c3cccc(C(F)(F)F)c3)CC2)c1O
  0.5	-1.7%	-0.2	10	-3.3%	-16%	6
CC1(C)CC(=O)C2=C(C1)N(c1ccc(F)cc1)C(=O)C2(NC(=O)c1ccccc1)C(F)(F)F (configuration not stated)
  -2.2	x	x	x	x	5%	-10
CC(C)C1C(=O)N(Cc2cn(Cc3ccco3)nn2)CCS(=O)(=O)N1Cc1ccc(-c2ccccc2)cc1 (configuration not stated)
  x	0.2%	3.7	0	0.3%	x	x
CCOC(=O)c1ccc(N2C(=O)c3[nH]nc(-c4ccc(C)cc4)c3C2c2ccc(O)c(OCC)c2)cc1 (configuration not stated)
  x	-1.0%	0.2	1	-5.3%	x	x
O=C1[C@@H]2Cc3c([nH]c4ccccc34)C(c3ccccc3)N2C(=O)CN1C1CC1 (some centres not stated)
  0.8	0.2%	2.5	-8	x	3%	5
O=C1CN(C(=O)COC(=O)c2ccccc2NC(=O)c2ccco2)c2ccccc2N1
  5.7	-1.8%	-1.1	-8	1.3%	0%	-14
COc1ccccc1N(O)C1CC(=O)N(c2ccc(Br)cc2)C1=O (configuration not stated)
  -0.4	-0.8%	11	-6	1.6%	-61%	-10
CC(C)CC(=O)N1CCC(N(CCc2ccccc2)Cc2ccccc2)CC1
  2.2	0.7%	x	x	-3.0%	u	3
CCCCc1ccc(NS(=O)(=O)N(C)C)cc1
  -0.5	-2.2%	-0.4	26	-4.6%	-1%	3
OCC[C@@H]1C[C@H](O)[C@@H](O)[C@]2(OCCc3cc(Cl)ccc32)O1
  x	1.8%	-0.1	x	0.4%	x	x
O=C(NC1=NCCS1)c1ccccc1
  2.4	-1.0%	0.3	-15	-0.4%	23%	7
COc1ccc(OCCNS(=O)(=O)c2ccccc2)cc1
  -0.9	-1.4%	0.4	-11	-0.4%	13%	-4
COc1cccc(N2CCN(C(=O)Nc3ccc4c(c3)NC(=O)CO4)CC2)c1
  8.3	-3.6%	-0.7	3	-0.2%	13%	-7
C[C@H](NC(=O)OCc1ccccc1)c1nnc([C@H](Cc2ccccc2)NC(=O)OC(C)(C)C)o1
  5.1	0.4%	0.7	8	0.0%	8%	u
COC(=O)C1CCN(C(=O)c2cc(S(=O)(=O)N3CCCCC3)ccc2Cl)CC1
  x	0.3%	0.8	-8	-0.4%	x	-7
CCCCCC(=O)N1C[C@@H](O)[C@H](n2cc(COC(=O)c3ccccc3)nn2)C[C@@H]1c1ccc(Cl)cc1
  x	1.9%	4.6	2	-3.3%	x	x
CCOc1ccc2nc(NC(=O)c3c([N+](=O)[O-])cnn3CC)sc2c1
  0.6	0.5%	1.0	15	-1.3%	5%	13
Cc1cc(=O)oc2c3c(cc(OCC(=O)N[C@H](C(=O)O)c4ccccc4)c12)OC(C)(C)CC3
  -2.6	2.5%	x	x	5.0%	4%	13
Cc1ccc(C)c(NC(=O)NNS(=O)(=O)c2ccc(C)c(C)c2)c1
  -0.9	-0.4%	-0.3	27	-2.4%	8%	-2
COC(=O)NCc1ccc2c(c1)OCO2
  1.2	-0.6%	-0.5	21	0.5%	27%	6
CCc1ccccc1NNC(=O)c1snnc1C
  2.7	2.2%	0.4	-14	x	u	15
N#Cc1cccc(S(=O)(=O)NNC(=O)C23CC4CC(CC(C4)C2)C3)c1
  x	0.4%	-0.2	-7	-24%	x	x
CCCC1=NN(C(=O)Cc2ccc(OC)c(OC)c2)C(O)(C(F)(F)F)C1 (configuration not stated)
  -1.9	0.5%	-0.4	3	-3.0%	2%	-2
N/C(=N\OC(=O)c1ccccc1Cl)c1ccccn1
  0.2	5.1%[38.3 µM]	0.5	-11	-0.8%	16%	x
Cc1cccc(OCC(=O)Nc2cccc(-c3nc4ccccc4s3)c2)c1
  x	0.7%	0.2	-4	u	x	x
COc1ccc(C2=CC(c3ccc(C)cc3)n3nnnc3N2)cc1 (configuration not stated)
  u	27%[38.3 µM]	0.5	-2	25µM*	u	16
COC(=O)Nc1nc2ccc(SC(C)C)cc2[nH]1
  0.1[24.8 µM]	9.3%	0.7	-7	-5.8%	-13%	-1
Cc1cccn2c(=O)c3cc(C(=O)NC(C)C)n(C)c3nc12
  x	1.0%	-0.5	4	4.4%	x	x
c1ccc2nc3c(nc2c1)sc1nc2ccccc2n13
  -2.3	x	x	x	x	12%	-2
CCOC(=O)c1cn(CC(=O)Nc2ccc(C(C)C)cc2)nn1
  2.2	-0.2%	0.0	11	-2.5%	-6%	3
O=C1CC(C(=O)Nc2ccc(F)cc2)n2cnnc2N1 (configuration not stated)
  -1.4	0.3%	-0.3	-15	x	8%	-1
O=S(=O)(Nc1ccc(Cl)cc1)c1cccc(S(=O)(=O)c2ccc(Cl)c(Cl)c2)c1
  x	u	-0.3	8	1.5%	x	x
N#Cc1ccc2c(c1)C[C@]1(c3ccsc3)Oc3c(c(=O)oc4ccc(F)cc34)C2O1
  14[11.7 µM]	x	x	x	x	-18%	i
Cc1ccc(-c2cc(C(=O)NCCCn3ccnc3)c3ccccc3n2)s1
  1.1	2.2%	-0.1	-3	u	20%	-10
Cc1cc(C)c(C)c(S(=O)(=O)N(C)CCc2ccccn2)c1C
  x	2.7%	0.0	-19	-1.7%	x	x
S=C(c1ccc(N2CCCC2)cc1)N1CCCCC1
  -1.0	-1.2%	-1.5	2	-0.6%	8%	-6
O=C(c1ccccc1)C1CCc2occc2C1=O (configuration not stated)
  1.8	0.9%	-1.0	2	0.2%	21%	-9
COc1cccc(N2CC(NC(=O)c3ccc4c(c3)OCO4)CC2=O)c1 (configuration not stated)
  x	-1.2%	-1.1	18	-22%	x	x
CC(=O)Nc1ccc2nc(NC(=O)CS(=O)(=O)c3ccc(C)cc3)sc2c1
  x	-1.6%	0.6	24	-0.2%	x	x
COc1ccc(CNC(=O)c2sc(=S)n(-c3ccccc3)c2N)cc1
  5.2	4.4%	2.1	15	x	25µM*	27

(further entries)
Value order: Menin MLL FP FL	PINK1 expr mod	TRPML1 ag	TRPML1 blocker	ClpP mod	Sfp inh	TRPV1 PAM
O=C(CSc1ccc(Cl)cc1)NC1CCCc2ccccc21 (configuration not stated)
  1.6	4.7%	5.4	11	-10%	7%	-9
O=C(Nc1ccc(C(=O)N2CCCCC2)cc1)c1ccc(Br)cc1
  5.8	-0.6%	-0.1	3	-1.2%	-3%	-27
CCOc1ccccc1CNC(=O)c1ccc2c(c1)N(Cc1ccc(C)cc1)CCS2
  x	1.5%	0.6	-19	4.0%	x	x
Cc1cccc(NC(=O)C2C(C(=O)O)C3C=CC2C32CC2)c1C (configuration not stated)
  4.3	1.8%	-0.9	-5	-1.3%	u	-6
